# Bioassay records (PubChem BioAssay)
# ClpP mod: qHTS Assay for Activators of ClpP. ATP-dependent Clp protease proteolytic subunit (Bacillus subtilis (strain 168)), P80244. AID 651965, 2013. purified B. subtilis ClpP, FRET peptide cleavage, 20 min. hit rate 1.9% among 340,000. Potency, µM (highest dose often 57.5 µM), without a hit: at the top dose activity change, negative = active; active = well fitted falling curve with a large enough effect; inconclusive = small, poorly fitted or top-dose-only effect; inactive = no such curve, though single readings can be large or run the other way; further: potency means the concentration at half of the fitted maximal effect; the source files actives as falling curves though it sought activators and does not explain the sign; nearly all actives have a fitted effect of over 65% in size; many hits overshoot -100%
# Target sequence (P80244 whole entry, looked up): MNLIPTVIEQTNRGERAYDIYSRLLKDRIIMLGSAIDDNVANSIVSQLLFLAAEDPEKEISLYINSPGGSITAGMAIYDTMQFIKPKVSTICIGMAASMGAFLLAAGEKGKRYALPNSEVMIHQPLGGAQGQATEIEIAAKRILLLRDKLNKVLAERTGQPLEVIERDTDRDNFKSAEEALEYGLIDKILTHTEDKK
#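 FRET quenching reversal measured ClpP activation: 10 microg/mL B. subtilis ClpP at pH 8 with the FRET-FV decapeptide, read at 430 nm after 320 nm excitation. The 20-min minus 0-min signal was scaled between DMSO/no-enzyme wells and ADEP (5.8 microM final).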
# gsp agonist: qHTS for Agonist of gsp, the Etiologic Mutation Responsible for Fibrous Dysplasia/McCune-Albright Syndrome: qHTS. Potency, µM (doses to about 76.9 µM), for the others: at the highest dose activation (cAMP increase), actives largely listed as activators. gsp mutant cells, cAMP HTRF, 30 min; control for the full effect not named in the record. AID 624287, 2012. hit rate 0.13% among 340,000; active = well fitted activation curve with a large enough effect; inconclusive = small, poorly fitted or top-dose-only effect, or another doubt; inactive = no such curve, though single readings can be large or run the other way; cell line not stated here;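 further: phosphodiesterase inhibitor Ro 20-1724 added with compounds to block cAMP breakdown; potency means the concentration at half of the fitted maximal effect; nearly all actives have a fitted effect of over 60% in size; about a fifth of the inactives were tested at one dose only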
#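 Cells in DMEM/10% FBS with G418 were pretreated with compounds in DMSO plus […] (300 uM stock) for 30 min at 37C. cAMP was measured by HTRF (cAMP-d2 plus anti-cAMP antibody-K) after 30 min at room temperature.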
# Sfp PPTase inh: qHTS Assay for Inhibitors of Bacillus subtilis Sfp phosphopantetheinyl transferase (PPTase). Biochemical Sfp PPTase activity, qHTS. Potency, µM, inactives show max response, negative = inhibition, usual class: inhibitors. hit rate 3.5% among 310,000; active means well fitted inhibition curve with a large enough effect; inconclusive means small, poorly fitted or top-dose-only effect, or another doubt; inactive means no such curve, though single readings can be large or run the other way;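 further: the enzyme is Sfp with the accession as filed and its product quenches rhodamine fluorescence; potency means the concentration at half of the fitted maximal effect; 0% = enzyme reaction without inhibitor and -100% = no enzyme wells; top concentration of the series not given in the record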
#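 Sfp 15 nM + cpd, 15 min RT; start w/ rhodamine-CoA 5 uM, BHQ-2-YbbR 12.5 uM (final); 50 mM Hepes pH 7.6, 10 mM MgCl2, 0.01% NP-40, 0.01% BSA; read 525/598 nm at 0 and 30 min.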
# TRPV1 PAM: HTS Assay for Compounds that Act as Potentiators of the Vanilloid Receptor 1 | Transient receptor potential cation channel subfamily V member 1 (Homo sapiens), Q8NER1 | TRPV1-expressing cells, Fluo-8 calcium influx, capsaicin EC20 potentiation; host cell line not named in the record; control for the full effect not named in the record | potentiation, % at 8.33 µM | hit rate 0.02% among 320,000 | AID 540277, 2011; active means potentiation above 80%; inconclusive means 30% to 80%; inactive means below 30%; further: 0% is about no effect
#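 TRPV1-expressing cells were cultured overnight at 35.5C and loaded with Fluo-8 calcium dye for 40 to 90 min at room temperature. After a 10 s baseline, compound was added and calcium influx was read kinetically for 3 min (ex 480/em 520 nm).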
# Menin-MLL FL inh: qHTS Assay for Inhibitors Targeting the Menin-MLL Interaction in MLL Related Leukemias: Competition With Fluorescein Labeled MLL-derived Peptide; Fluorescence polarization, fluorescein-MLL peptide displacement from menin; FP activity change, % at 61.4 µM; 290,000 tested, under 10 active; AID 1766, 2009; inconclusive = falling polarisation curve, or a change in total fluorescence; inactive = total fluorescence flat and polarisation flat or rising; no compound was filed as active; the % refers to the polarisation; negative = inhibition;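 further: % of control where 0% means no effect; inhibitors lower the polarisation; unlabelled MLL peptide was the positive control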
# D2 PAM: Beta-Arrestin HTS for Positive Allosteric Modulators of the Human D2 Dopamine Receptor: Potentiators; DiscoveRx D2 beta-arrestin cells, luminescence, 90 min; 100% = 57 uM dopamine signal; hit rate 0.23% among 360,000; potentiation, % (no concentration beside the values); active = potentiation of 50% or more; inconclusive = 30% to 50%; inactive = 30% or less;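 further: compound concentration not given in the record; tested on top of an EC20 dose of dopamine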
# Target sequence (P14416 whole entry, looked up): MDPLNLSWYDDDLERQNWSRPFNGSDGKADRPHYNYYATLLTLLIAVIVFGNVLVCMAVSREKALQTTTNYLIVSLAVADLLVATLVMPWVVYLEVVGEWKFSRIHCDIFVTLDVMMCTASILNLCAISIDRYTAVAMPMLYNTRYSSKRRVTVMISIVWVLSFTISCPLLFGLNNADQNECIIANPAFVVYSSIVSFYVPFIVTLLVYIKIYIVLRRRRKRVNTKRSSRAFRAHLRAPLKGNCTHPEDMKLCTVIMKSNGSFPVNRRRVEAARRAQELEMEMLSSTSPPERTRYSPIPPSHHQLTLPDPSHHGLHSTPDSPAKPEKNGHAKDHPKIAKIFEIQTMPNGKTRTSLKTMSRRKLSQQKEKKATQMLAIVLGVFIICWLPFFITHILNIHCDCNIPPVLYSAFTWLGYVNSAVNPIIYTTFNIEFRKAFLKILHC
#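 D2 cells co-treated with compound plus 50 nM dopamine (EC20) for 90 min at 37 deg C to detect potentiation. Beta-arrestin recruitment was read as enzyme-fragment luminescence after 1 h at ambient temperature. Full response was set by 57 uM dopamine.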
# gsp antag: qHTS for Antagonists of gsp, the Etiologic Mutation Responsible for Fibrous Dysplasia/McCune-Albright Syndrome: qHTS; gsp-mutant cells, cAMP HTRF, 30 min; control for the full effect not named in the record; Potency, µM (highest dose often 76.9 µM), without a hit: at the top dose activity change, negative = inhibition, usual class: inhibitors; hit rate 0.4% among 340,000; AID 624288, 2012; active = falling curve of any shape with a large fitted effect; inconclusive = falling curve, mostly with a smaller effect; inactive = flat or rising curve; cell line not stated here;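 further: intracellular cAMP measured with PDE inhibitor Ro 20-1724 present during compound exposure; potency means the concentration at half of the fitted maximal effect; on the % scale 0 is the no-effect control and ±100 the full control effect; nearly all actives have a fitted effect of over 65% in size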
#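 G418-selected cells were plated in DMEM/10% FBS for 16-24 h at 37C, then treated with compounds plus the PDE inhibitor […] (300 uM solution added) for 30 min at 37C. Intracellular cAMP was measured by HTRF after 30 min lysis at room temperature.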
# * = called active by the depositor; ? = inconclusive; · = no result given; [ ] = remark or other dose.
# Keys – A = ClpP mod; B = gsp agonist; C = Sfp PPTase inh; D = TRPV1 PAM; E = Menin-MLL FL inh; F = D2 PAM; G = gsp antag
> CC(C)CNc1nc(=S)nc(N(C)C)[nH]1
  A = -0.7%	B = ?	C = 11%	D = 3	E = 0.1	F = -4	G = ?
> CC(=NNC(=O)c1cccc(S(=O)(=O)N2CCOCC2)c1)c1ccccc1
  A = 2.6%	B = 1%	C = ·	D = ·	E = ·	F = -2	G = 3%
> Cc1cc(=O)oc2cc(OCCCN3C(=O)c4ccccc4C3=O)ccc12
  A = 0.5%	B = -7%	C = 13%	D = 9	E = 1.4	F = 2	G = 8%
> CC1(C)N([O-])C(c2cccs2)=C[N+]1=O
  A = 0.6%	B = -33%[inhibitor]	C = 9%	D = -8	E = 1.1	F = -1	G = 7%
> O=S(=O)(c1ccccc1)N1CCN(CC2CC3C=CC2C3)CC1 (stereo unspecified)
  A = -0.8%	B = -13%	C = 8%	D = -4	E = -2.6	F = -9	G = 13%
> CCN(CC)CCOc1c(C)cccc1Cl
  A = ·	B = -5%	C = -6%	D = -4	E = -1.8	F = -2	G = 2%
> CCCc1cc(=O)oc2cc(C)cc(OCC(=O)NCCCN3CCOCC3)c12
  A = 3.9%	B = ?	C = 6%	D = 6	E = -3.9	F = -11	G = -5%
> COc1ccc(-n2nnnc2SCC(=O)NC(=O)Nc2ccc3c(c2)OCCO3)cc1
  A = -1.2%	B = -1%	C = ?	D = -6	E = 2.7	F = 23	G = -12%
> CC(=O)N/C(=C\c1ccc(C)o1)C(=O)NCc1ccccc1
  A = 0.7%	B = 1%[15.4 µM]	C = -4%	D = 1	E = 5.2	F = -11	G = 4%
> O=C(CSc1nnc(-c2ccccc2F)o1)NC(=O)Cc1ccccc1
  A = 0.9%	B = -61%[inhibitor]	C = ·	D = 24	E = ·	F = 0	G = 0%
> Cc1ccccc1Nc1nnc(SCc2cc([N+](=O)[O-])cc3c2OCOC3)s1
  A = -2.5%	B = -6%	C = -12%	D = 2	E = 1.5	F = -8	G = -12%
> Cc1sc2c(=O)n3c(nc2c1C(=O)NC1CCCCC1)CCCCC3
  A = -1.9%	B = -64%[inhibitor]	C = 20%	D = -18	E = -0.8	F = 0	G = -1%
> O=C(CN1C(=O)COc2ccccc21)NCCC1=CCCCC1
  A = 1.2%	B = -40%[inhibitor]	C = 0%	D = ?	E = -1.4	F = -15	G = -3%
> O=C(Nc1cccc2ccccc12)ON=C1CCCCC1
  A = ·	B = 1%	C = ·	D = ·	E = ·	F = -1	G = -11%
> Cc1cccc(C(=O)OCC(=O)Nc2sc3c(c2C#N)CCC3)c1
  A = -2.4%	B = 26%[15.4 µM]	C = 22%	D = 2	E = 0.4	F = 4	G = 6%
> O=C(COc1ccc2c3c(c(=O)oc2c1)CCC3)NCCCN1CCOCC1
  A = 4.3%	B = ?	C = -1%	D = -3	E = ·	F = -5	G = -5%
> c1ccc(-c2nc(N3CCN(c4ccccc4)CC3)nc(-n3ccnc3)n2)cc1
  A = -6.0%	B = 5%	C = ?	D = -1	E = 1.5	F = -16	G = -18%
> COC(=O)C1=CO[C@@H](O[C@@H]2O[C@H](CO)[C@@H](O)[C@H](O)[C@H]2O)[C@H]2[C@@H]1C(=O)C[C@@H]2C
  A = 3.0%	B = ·	C = ·	D = 11	E = ·	F = -10	G = 4%
> CCCCOc1ccc(C(=O)NN2CCN(C)CC2)cc1
  A = 1.8%	B = -54%[inhibitor]	C = -4%	D = 0	E = 4.6	F = 4	G = 9%
> COc1ccc(NC(=O)N(Cc2cccs2)Cc2cc3cc4c(cc3[nH]c2=O)OCO4)cc1
  A = ·	B = ·	C = 4%	D = 12	E = 4.1	F = ·	G = ·
> COc1ccc(/C(C#N)=C/c2cccnc2)cc1
  A = ·	B = ·	C = 13%	D = -9	E = -5.1	F = ·	G = ·
> CC(=O)c1ccc(OCC(=O)N2CCN(S(=O)(=O)c3ccc(C)cc3C)CC2)cc1
  A = -0.5%	B = -2%	C = 9%	D = -1	E = 5.6	F = 16	G = -5%
> Cc1c(Cl)ccc(S(=O)(=O)NCCCn2ccnc2)c1Cl
  A = 0.6%	B = -18%	C = 4%	D = -2	E = -1.1	F = -2	G = 5%
> CC(=O)N1CCN(C(=O)CCc2nnc(CCCCc3ccccc3)o2)CC1
  A = ·	B = 20%	C = -2%	D = -9	E = -7.1	F = 0	G = 8%
> O=C(CSc1ccc(Cl)cc1)N/N=C/c1cccnc1
  A = 0.5%	B = -21%[15.4 µM]	C = 10%	D = -23	E = 0.5	F = -10	G = 8%

# Exported in CSV form: eleven of the compounds above
canonical_smiles,ClpP mod,gsp agonist,Sfp PPTase inh,TRPV1 PAM,Menin-MLL FL inh,D2 PAM,gsp antag
CC(C)CNc1nc(=S)nc(N(C)C)[nH]1,-0.7%,?,11%,3,0.1,-4,?
CC(=NNC(=O)c1cccc(S(=O)(=O)N2CCOCC2)c1)c1ccccc1,2.6%,1%,·,·,·,-2,3%
Cc1cc(=O)oc2cc(OCCCN3C(=O)c4ccccc4C3=O)ccc12,0.5%,-7%,13%,9,1.4,2,8%
CC1(C)N([O-])C(c2cccs2)=C[N+]1=O,0.6%,-33%[inhibitor],9%,-8,1.1,-1,7%
O=S(=O)(c1ccccc1)N1CCN(CC2CC3C=CC2C3)CC1 (stereo unspecified),-0.8%,-13%,8%,-4,-2.6,-9,13%
CCN(CC)CCOc1c(C)cccc1Cl,·,-5%,-6%,-4,-1.8,-2,2%
CCCc1cc(=O)oc2cc(C)cc(OCC(=O)NCCCN3CCOCC3)c12,3.9%,?,6%,6,-3.9,-11,-5%
COc1ccc(-n2nnnc2SCC(=O)NC(=O)Nc2ccc3c(c2)OCCO3)cc1,-1.2%,-1%,?,-6,2.7,23,-12%
CC(=O)N/C(=C\c1ccc(C)o1)C(=O)NCc1ccccc1,0.7%,1%[15.4 µM],-4%,1,5.2,-11,4%
O=C(CSc1nnc(-c2ccccc2F)o1)NC(=O)Cc1ccccc1,0.9%,-61%[inhibitor],·,24,·,0,0%
Cc1ccccc1Nc1nnc(SCc2cc([N+](=O)[O-])cc3c2OCOC3)s1,-2.5%,-6%,-12%,2,1.5,-8,-12%

# More structures
# Results follow in this order: ClpP mod, gsp agonist, Sfp PPTase inh, TRPV1 PAM, Menin-MLL FL inh, D2 PAM, gsp antag
Cc1cccc(-n2c(C)nc3cc(C(=O)N4CCOCC4)ccc32)c1
  -2.4%, -1%, 25%, -9, 1.0, 2, 14%
O=C(Nc1ccc2ccccc2c1)c1cc(F)c(F)cc1Cl
  ·, -9%, -3%, -18, -0.8, -5, -2%
COc1cc(CC(=O)OCC(=O)NCc2ccco2)cc(OC)c1OC
  1.2%, -29%, ·, ·, ·, -2, -8%
Cc1cc(CN(Nc2ccccc2)c2ccccc2)cc(C)n1
  -6.5%, -9%, ·, ·, ·, -3, ·
CC(Sc1nnc2ccccn12)C(=O)Nc1ccc2c(c1)OCO2 (stereo unspecified)
  ·, ?, 4%, -3, -5.8, -2, -1%
O=[N+]([O-])c1ccc(NS(=O)(=O)c2ccccc2)c(Cl)c1
  ·, -38%[inhibitor], ·, ·, ·, -17, ?
CCOC(=O)c1ccccc1NC(=O)COC(=O)CN1C(=O)NC2(CCCC2)C1=O
  1.6%, 1%[15.4 µM], 5%, 0, -3.7, -2, 5%
CCCC(=O)Nc1c2c(nn1-c1ccc(C)cc1)CS(=O)(=O)C2
  0.1%, ?, 18%, 15, 0.7, -11, 8%
COc1ccc(C2C3=C(CC(C)(C)CC3=O)Nc3c2c(=O)[nH]c2nc(C)nn32)cc1 (stereo unspecified)
  ?, -1%, 17%, -6, 3.3, -20, -7%
Cn1c(=N)c(S(=O)(=O)c2ccccc2)cc2c(=O)n3ccccc3nc21
  7.9µM*, 17%, 9%, 3, 0.4, -1, -34%
CCCOc1cccc(C(=O)O)c1
  0.6%, -28%, 13%, -5, 2.2, -12, -1%
Fc1ccc(/C=N/N2CCOCC2)c(F)c1
  -1.6%, 4%, 8%, -22, -0.1, -4, -2%

# Compounds as they come; 5.1% or so of the library scored in one or more.
